Screening data from PubChem.
NS1 inh: qHTS Assay for Inhibitors of Influenza NS1 Protein Function | actives 0.4% (n = 270,000) | Potency, µM (top dose mostly 46.1 µM), without a hit: top-dose activity, positive = more growth | S. cerevisiae slowed by influenza A NS1, growth recovery by OD600; further: actives are rising curves; nearly all actives have a fitted effect of over 50% in size
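Recovery from NS1-induced slow growth read by OD600 in budding yeast switched to galactose assay medium (pH 6.0, -URA) at 1:100 dilution. Compound 23 nl per well; the matching strain lacking NS1 serves as control.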
LASV entry inh: qHTS for Inhibitors of binding or entry into cells for Lassa Virus | Lassa virus pseudotype entry inhibition, cell reporter; control for the full effect not named in the record | Potency, µM (highest dose often 37.9 µM), without a hit: top-dose activity change, negative = inhibition, most hits filed as inhibitors | actives 1.2% (n = 300,000); active means well fitted inhibition curve with a large enough effect; inconclusive means small, poorly fitted or top-dose-only effect, or effect the other way; inactive means flat fitted curve, though single readings scatter; tested in HEK293 cells; further: on the % scale 0 is the no-effect control and ±100 the full control effect; nearly all actives have a fitted effect of over 50% in size; luciferase read-out
SARS PLP yeast: qHTS of Yeast-based Assay for SARS-CoV PLP | S. cerevisiae expressing SARS-CoV PLpro, growth rescue; control for the full effect not named in the record | Potency, µM (doses to about 32.9 µM), for inactives: at the top dose activity, positive = growth rescue | actives 0.19% (n = 330,000) | AID 485353, 2010; further: 0% is about no effect; nearly all actives have a fitted effect of over 55% in size; growth read by luminescence after 48 h
Cruzain noTriton: qHTS Assay for Promiscuous and Specific Inhibitors of Cruzain (without detergent); Potency, µM, for inactives: max response, negative = inhibition, actives largely listed as inhibitors; actives 2.3% (n = 200,000); purified cruzain, Z-FR-AMC fluorescence, no detergent; Cruzipain (Trypanosoma cruzi), P25779; active means well fitted curve in the direction sought with a large enough effect; inconclusive means small, poorly fitted or top-dose-only effect, or another doubt; inactive means no such curve, though single readings can be large; an effect the other way counts as inactive or inconclusive;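 further: plate controls were enzyme without inhibitor for no effect and buffer without enzyme for full effect; nearly all actives have a fitted effect of over 40% in size; top concentration of the series not given in the record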
Target sequence (P25779 123-467 limits assumed): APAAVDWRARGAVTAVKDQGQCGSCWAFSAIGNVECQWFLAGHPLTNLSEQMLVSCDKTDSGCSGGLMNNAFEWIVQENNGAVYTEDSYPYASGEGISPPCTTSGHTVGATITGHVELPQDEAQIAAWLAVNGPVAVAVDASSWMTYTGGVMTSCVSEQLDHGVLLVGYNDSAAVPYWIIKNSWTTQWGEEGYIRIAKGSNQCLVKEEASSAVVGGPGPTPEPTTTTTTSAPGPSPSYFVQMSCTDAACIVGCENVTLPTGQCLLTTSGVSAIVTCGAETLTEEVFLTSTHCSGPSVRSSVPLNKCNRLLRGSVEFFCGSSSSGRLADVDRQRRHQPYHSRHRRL
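Detergent-free condition (0.00005% Triton X-100) in acetate buffer pH 5.5 with DTT. 1.5 nM enzyme and compound were pre-mixed 15 min, then 2 uM Z-FR-AMC substrate added; reaction progress from fluorescence change between first and third reads (60 s).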
StopGo reporter: High Throughput Screening for Foot and Mouth Disease Virus Antivirals; human cells with a luciferase reporter of 2A StopGo recoding; control for the full effect not named in the record; actives 1.2% (n = 410,000); AID 1159524, 2015; Potency, µM (titrated, usually from 57.9 µM), for the others: at the top dose signal change, negative = less light; active = well fitted falling curve with a large enough effect; inconclusive = small, poorly fitted or top-dose-only effect; inactive = no such curve, though single readings can be large or run the other way; tested in HEK293T cells; further: on the % scale 0 is the no-effect control and ±100 the full control effect; nearly all actives have a fitted effect of over 45% in size; luciferase light after 4 h
Cruzain inh Det: qHTS Assay for Promiscuous and Specific Inhibitors of Cruzain (with detergent); Cruzipain (Trypanosoma cruzi), P25779; purified cruzain, Z-FR-AMC fluorescence, 0.01% Triton; Potency, µM, without a hit: max response, negative = inhibition, usual class: inhibitors; actives 0.43% (n = 200,000); AID 1478, 2009; active means well fitted curve in the direction sought with a large enough effect; inconclusive means small, poorly fitted or top-dose-only effect, or another doubt; inactive means no such curve, though single readings can be large; an effect the other way counts as inactive or inconclusive;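 further: plate controls were neutral wells for no effect and buffer without enzyme for full effect; nearly all actives have a fitted effect of over 40% in size; top concentration of the series not given in the record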
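Steps: dispense cruzain (1.5 nM final) in acetate buffer pH 5.5 with DTT and 0.01% Triton X-100; pin-transfer compounds; incubate 15 min RT; add Z-FR-AMC (2 uM final); read fluorescence every 30 s, using the 60 s intensity change.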
RE007 growth inh: qHTS Assay for Inhibitors of the HIV-1 protein Vpr | S. pombe RE007 Vpr strain, BacTiter-Glo ATP luminescence, 24 h; control for the full effect not named in the record | Potency, µM (titrated, usually from 92.2 µM), for inactives: at the highest dose activity change, negative = less growth | actives 0.21% (n = 360,000); active = well fitted falling curve with a large enough effect; inconclusive = small, poorly fitted or top-dose-only effect; inactive = no such curve, though single readings can be large or run the other way;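 further: on the % scale 0 is the no-effect control and ±100 the full control effect; nearly all actives have a fitted effect of over 50% in size; the assay follows cell death caused by Vpr and the record does not say whether a fall means rescue or toxicity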
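Fission yeast strain RE007, carrying one chromosomally integrated HIV-1 vpr copy, was seeded at OD 0.01 in PMG+AL medium with 23 nL pinned compound. After 24 h at 30 °C and 99% humidity, viability was read by BacTiter-Glo luminescence.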
Marburg entry inh: qHTS for inhibitors of binding or entry into cells for Marburg Virus; Marburg virus pseudotyped entry inhibition, cell reporter; control for the full effect not named in the record; about a third of the inactives were read at about 46 µM; Potency, µM (series often up to 37.8 µM), for the others: top-dose activity change, negative = inhibition, most hits filed as inhibitors; actives 1.8% (n = 300,000); AID 540276, 2011; active = well fitted inhibition curve with a large enough effect; inconclusive = small, poorly fitted or top-dose-only effect, or effect the other way; inactive = flat fitted curve, though single readings scatter; tested in HEK293 cells; about a fifth of its hits are not listed in these tables; further: on the % scale 0 is the no-effect control and ±100 the full control effect; luciferase read-out
* hit, by the source's call; u = inconclusive; x = not tested or not shown; & = joins results of further samples; [ ] = another dose, or the depositor's remark. Unless noted, the call rests on the fitted dose curve; in most records, active means well fitted rising curve with a large enough effect; inconclusive means small, poorly fitted or top-dose-only effect; inactive means no such curve, though single readings can be large or run the other way. Potency means the concentration at half of the fitted maximal effect.

canonical_smiles,NS1 inh,LASV entry inh,SARS PLP yeast,Cruzain noTriton,StopGo reporter,Cruzain inh Det,RE007 growth inh,Marburg entry inh
CCCCN(C(=O)COc1ccc(C)cc1OC)c1c(N)n(CCC)c(=O)[nH]c1=O,-7%,x,0%,x,-5%,x,-4%,-2%
Cc1ccc(C)c(Cn2c3ccccc3c3cnn(CC(=O)NC4CCC(C)CC4)c(=O)c32)c1 (stereo not given),x,7%[46.1 µM],x,-2%,-6%,-1.4%,x,7%[46.1 µM]
NS(=O)(=O)c1cccc(NC(=O)COC(=O)CN2C(=O)C3CC=CCC3C2=O)c1 (stereo not given),x,14%,4%,x,32%[activator],x,1%,27%[46.1 µM]
COc1cc(CNc2nnnn2C)cc(OC)c1OC,0%,x,1%,x,8%,x,3%,x
CCOC(=O)C1(CC2CCCCO2)CCN(S(=O)(=O)c2cccc(F)c2)CC1 (stereo not given),-3%,u,-1%,x,-15%,x,-19%,u
CCC(=O)NC(c1ccc(C)cc1)c1ccc2cccnc2c1O (stereo not given),-25%,11µM*,u,x,3%,x,u,3.2µM*
COc1ccc(CC(=O)NNC(=O)CSc2nc(C)c(C)c(=O)[nH]2)cc1,x,0%[46.1 µM],-2%,x,37%[activator],x,1%,15%[46.1 µM]
COc1ccc(-n2c(O)cnc2Nc2nc(C)cc(C)n2)cc1OC,8%,0%,-4%,5%,x,1.8%,3%,-7%
COCCn1cc(C(=O)c2cc(Br)ccc2O)cc(C#N)c1=O,x,-24%,0%,x,-27%,x,-2%,x
Cc1cc(C(F)(F)Cl)n2ncc(-c3ccccn3)c2n1,-2%,x,0%,x,16%,x,-1%,x
Cc1ccccc1OCCn1c(CCNC(=O)C2CCCCC2)nc2ccccc21,x,-1%[46.1 µM],x,-2%,0%,1.4µM*,x,-17%&-17%[46.1 µM]
CC[C@@H]1Cc2cc(O)ccc2C2=C1c1ccc(O)cc1C[C@H]2CC,-3%,u,x,13%&-4%,u,6.8%&48%,u,35µM*
CCc1ccc(OCc2cc(=O)n3cc(C)sc3n2)cc1,x,0%[46.1 µM],x,6%,10%,-0.8%,x,-13%[46.1 µM]
Cc1ccc(S(=O)(=O)N2CC3CCC2C3)cc1 (stereo not given),-7%,-1%,0%,8%,41%[activator],3.5%,9%,0%
Nc1nnc(SCC(=O)Nc2sc3c(c2C(=O)c2ccccc2)CCCC3)s1,7%,6%,-13%,-17%,u,-8.3%,-27%,u
COc1cccc(C(=O)NCCCN2CCN(CCCNC(=O)c3cccc(OC)c3)CC2)c1,-7%,0%,9%,1%,-8%,2.4%,-4%,u
Cc1ccc(-n2nc3c(=O)n(CCCC(=O)NCc4ccco4)nc(C)c3c2C)cc1,-12%,x,5%,x,-8%,x,9%,x
CCCNC(=O)c1cc(-c2ccc(OC)cc2)n(CCCOC)c1C,-24%,u,u,-1%,-13%,-0.1%,13%,8%
Cc1cccc(NC(=S)NCCc2ccc(Cl)cc2)c1C,-50%,x,0%,x,31%,x,4%,x
COc1cc2c(cc1OC)-c1nnc(-c3ccco3)n1C1(CCCC1)C2,-12%,-15%,1%,1%,0%,-2.1%,0%,-19%
O=C(COC(=O)Cc1ccccc1)NCc1ccc2c(c1)OCO2,x,-11%,4%,x,-17%,x,-23%,-9%
Cc1ccc(/C=C2/Sc3ccc(C(=O)N4CCN(C)CC4)cc3NC2=O)cc1,4%,x,-5%,x,-2%,x,-6%,x
Cc1ccccc1Cn1c(=O)n(CC2CCC(C(=O)NCCc3ccccc3)CC2)c(=O)c2ccccc21 (stereo not given),0%,20%,17%,u,-6%,-0.9%,3%,u
CC(=O)c1cccc(NC(=O)c2cc(-c3ccc(C)cc3)on2)c1,-4%,-11%,11%,25µM*,x,1.1%,-3%,21%
COc1ccc(CN2CCC(N3CCC(C(=O)N4CCOCC4)CC3)CC2)c(F)c1,5%,3%,1%,x,-12%,x,0%,-8%[46.1 µM]
Nc1cc(Cl)cc2c1-c1ccc(Cl)cc1C2O (stereo not given),x,-12%[46.1 µM],x,x,47%[activator],x,-21%,10%[46.1 µM]
O=C(Nc1ccc(F)cc1F)c1ccc2nc(N3CCOCC3)sc2c1,-11%,x,5%,x,-10%,x,-5%,x
CCC(C)[C@H](N)c1nnc(SCC(=O)Nc2ccc(C)cc2C)o1 (stereo not given in full),6%,x,1%,x,-7%,x,17%,x
Fc1ccc(N2CCN(Cc3cc4c(cc3Br)OCO4)CC2)cc1,-6%,u,12%,x,u,x,-13%,u
Cc1ncoc1C(=O)N1CCCC(CCC(=O)NCc2ccc(F)c(F)c2)C1 (stereo not given),-4%,30%[46.1 µM],-1%,x,18%,x,3%,6%[46.1 µM]
O=S(=O)(Nc1ccccc1)c1ccc2c(c1)CCO2,-8%,16%,0%,x,33%[activator],x,-11%,17%[14.2 µM]
Cc1ccc(CSc2nnc(-c3ccncc3)n2CC2CCCO2)cc1 (stereo not given),-23%,0%,-14%,-6%,-1%,6.3%,-11%,-27%
COc1ccc(OC)c(NC(=O)CCn2cnnn2)c1,x,-1%[46.1 µM],x,0%,8%,1.2%,x,-3%[46.1 µM]
CN1CCN(C(=O)/C(=C/c2ccccc2)c2ccccc2)CC1,2%,-2%,5%,-11%,18%,3.0%,-6%,u
Cc1ccc(-c2ccc(CCC(=O)O)n2-c2ccc(C)c(Cl)c2)cc1,x,0%[46.1 µM],x,-1%,7%,-20%,x,2%[46.1 µM]
COc1ccc(NC(=O)CSc2ncnc3[nH]ncc23)cc1,2%,x,-1%,x,-8%,x,10%,x
S=C(N/N=C/c1ccc(Br)cc1)N1CCCCC1,-70%,-21%[46.1 µM],-5%,x,51%[activator],x,-6%,u
c1csc(-c2noc(COc3ccc4c(c3)CCCC4)n2)c1,-6%,u,-13%,-15%,40%[activator],-5.8%,-14%,u
Cc1ccc2oc(=O)c3cnn(CC(=O)NC4CCCCC4C)c3c2c1 (stereo not given),-3%,x,-7%,4%,-19%,0.2%,28%,x
O=C(Nc1ccc(F)c(Cl)c1)c1cc(S(=O)(=O)NCc2ccc3c(c2)OCO3)ccc1F,x,-8%[46.1 µM],x,-16%,-11%,-0.5%,x,x
Cc1cc(C(=O)COC(=O)CCC(=O)c2ccc3c(c2)OCCO3)c(C)n1Cc1ccco1,7%,-6%,0%,3%,9%,-2.9%,5%,-4%&4%
CCOC(=O)c1cnc(-n2nc(C)cc2C)nc1Oc1ccccc1F,-1%,-16%,21%,x,-19%,x,10%,1%
CCCOc1ccc(C(=O)NCCC(=O)NCCCC(=O)OCC)cc1,0%,3%,-2%,-7%,x,3.7%,7%,-1%
CNC(=O)/C(C#N)=C/c1c(N2CCN(c3ccc(OC)cc3)CC2)nc2c(C)cccn2c1=O,6%,u,1%,x,-9%,x,6%,4%
O=[N+]([O-])c1ccc2c(c1)nc(CO)n2Cc1ccccc1,11%,x,6%,x,-7%,x,0%,x
CCCNc1c(NS(=O)(=O)c2ccc3c(c2)CCCC3)c(=O)oc2ccccc12,12%,u,11%,x,-19%,x,-7%,u
COCc1c(Br)c(C)[nH]c(=O)c1C#N,12%,-3%,15%,-5%,0%,-4.5%,4%,-6%
CCCOc1ccc(C(=O)Nc2cc3c(cc2N2CCOCC2)n(C)c(=O)n3C)cc1,x,5%[46.1 µM],x,-3%,-12%,0.1%,x,9%[46.1 µM]
Cc1ccn2cc(-c3cccc(NS(C)(=O)=O)c3)nc2c1,2%,u,1%,x,22%,x,-14%,-26%[46.1 µM]
O=C(CNC(=O)C1CCCCC1)Nc1ccccc1Cl,12%,u,-14%,4%,42%[activator],-1.9%,-3%,4%
O=C(CSc1nnc(Cc2cccs2)n1-c1ccccc1)NC1CCCCC1,-4%,14µM*,2%,1%,7%,0.0%,16%,-19%
N/C(=N\OC(=O)c1ccc(Br)o1)c1cccnc1,x,12%,-7%,x,0%,x,-11%,0%[46.1 µM]
O=C1/C(=C/c2cccs2)CCc2ccccc21,-77%,u,-29%,-12%,-41%,-5.9%,u,u
CSc1nc2ccc(NC(=O)c3nn(C(C)C)c(=O)c4ccccc34)cc2s1,u,u,16%,u,13%,-8.5%,5%,u
CCCCN(C)C(=O)CCC(=O)NNc1nc2ccccc2c2nc(C)nn12,7%,u,-1%,-9%&-4%,-12%&-1%,-0.1%&0.2%,12%,6%[46.1 µM]
COc1ccc(OCc2nc3ccccc3n2Cc2ccccc2Cl)cc1,x,11%[46.1 µM],x,4%,-19%,-6.9%,x,-9%[46.1 µM]
CCc1noc(-c2ccc(N3CCC(C)CC3)c([N+](=O)[O-])c2)n1,x,16%[46.1 µM],x,6%,19%,-13%,x,u
CCc1nc(-c2cc(S(=O)(=O)N3CCN(c4ccc(OC)cc4)CC3)ccc2OC)no1,x,27%[46.1 µM],x,-14%,2%,-3.2%,x,0%[46.1 µM]
Cc1ccccc1Cn1c(=O)n(CCCCC(=O)NCc2ccc3c(c2)OCO3)c(=O)c2ccccc21,x,-2%[46.1 µM],x,7%,-27%,-4.8%,x,u
O=C(CSc1nc2ccccc2o1)NCc1ccc2c(c1)OCO2,-141%,x,-10%,-7%,-23%,-4.3%,-6%,x
CCOC(=O)N1CCN(C(=O)/C=C/c2ccc3c(c2)OCO3)CC1,-1%,-22%,-4%,-10%,-3%,-8.6%,-23%,7%
CC(=O)Nc1ccc(C(=O)OCCCOC(=O)c2ccc(NC(C)=O)cc2)cc1,12%,x,-2%,x,-21%,x,6%,x
COc1ccc(S(=O)(=O)NCC(c2ccc3c(c2)OCO3)N2CCN(C)CC2)cc1OC (stereo not given),x,3%,-2%,x,-4%,x,-18%,2%
